From PubChem BioAssay
S aureus helic = blocks Staphylococcus aureus DNA helicase; purified S. aureus helicase, fluorescence unwinding assay; about half of the hits fall short of the stated cut; inhibition, %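 (tested at about 80 µM)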; actives 0.05% (n = 120,000); AID 485395;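 active = both duplicates at 50% or more, or one of them with a favoured structure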;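 also: 0% = mean of negative control wells and 100% = mean of positive control wells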
MgrA-DNA mod = S. aureus MgrA-DNA binding modulation. fluorescence polarization. inhibition, %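 (about 10 µg/mL by stock and volumes)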. actives 0.13% (n = 84,000). AID 602314;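 active = above 50% in either of two replicates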;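 also: 0% = protein plus DNA without compound and 100% = DNA alone without protein; higher means less MgrA bound to DNA so lower polarization; one replicate is shown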
The depositor's hits bear a star; / = no result given; & = joins results of further samples. Only part of the results is shown; rates above refer to the full screens.

S aureus helic	MgrA-DNA mod	structure
8	/	NC(CO)c1ccccc1 (stereo not drawn)
23	/	CCN1CCC(N(Cc2ccco2)C(=O)Nc2ccc(OC)cc2)CC1
/	-2.3	COc1ccc(C2=NN(CN3C(=O)C(=O)c4cc(Br)ccc43)C(c3cccc([N+](=O)[O-])c3)C2)cc1 (stereo not drawn)
-8	1.9	C=CCN(CC=C)S(=O)(=O)c1ccc(C(=O)Nc2nnc(COC)o2)cc1
8	/	CC(=O)Nc1nc(-c2cccnc2)cs1
/	-0.4	CCOC(=O)c1ccc(OCc2ccccc2)cc1
-1	1.4	CCCNC(=O)C1CC(c2ccc(F)cc2)=NO1 (stereo not drawn)
7	-0.8	Oc1ccccc1C1Nc2ccccc2-c2nc3ccccc3n21 (stereo not drawn)
/	3.6	COC(=O)CCCCCCCC(=O)Nc1ccc(Cl)cc1
14	/	Cc1nc2cc(-c3ccccc3)nn2c(C)c1CCC(=O)N1CCCCC1
-19	0.9	Cc1ccccc1/C(N)=N\O
/	-0.9	CC(Oc1ccccc1)c1ccnn1C(=O)Nc1ccccc1 (stereo not drawn)
-60	/	Cc1cc2nc3c(=O)[nH]c(=O)[nH]c3nc2cc1N=Cc1c(O)n(Cc2ccccc2)c(=O)[nH]c1=O
-6	/	Cc1cccc(N2C(=O)CC(Sc3ncn[nH]3)C2=O)c1 (stereo not drawn)
/	-1.9	COCc1cc(=O)oc2cc(NS(C)(=O)=O)ccc12

Ordered by SMILES length (low to high): part of the list above.
S aureus helic	MgrA-DNA mod	structure
/	-0.4	CCOC(=O)c1ccc(OCc2ccccc2)cc1
23	/	CCN1CCC(N(Cc2ccco2)C(=O)Nc2ccc(OC)cc2)CC1
-60	/	Cc1cc2nc3c(=O)[nH]c(=O)[nH]c3nc2cc1N=Cc1c(O)n(Cc2ccccc2)c(=O)[nH]c1=O
/	-2.3	COc1ccc(C2=NN(CN3C(=O)C(=O)c4cc(Br)ccc43)C(c3cccc([N+](=O)[O-])c3)C2)cc1 (stereo not drawn)

Carrying on.
S aureus helic	MgrA-DNA mod	structure
3	1.4	COC1C2C3CC4C5C3C1C5C(O)(c1ccccc1)C42 (stereo not drawn)
5	1.6	CCCCC(CC)C(=O)Nc1c2c(nc3c1CCC3)CCCC2 (stereo not drawn)
10	-0.8	CCc1c(O)nc(SC(C)C(=O)Nc2cccc(Cl)c2)[nH]c1=O (stereo not drawn)
/	1.0	O=C(Nc1ccccc1-c1nc2ccccc2[nH]1)c1ccc(F)cc1
-8	/	COc1ccccc1S(=O)(=O)N(C)S(=O)(=O)c1cc(Cl)ccc1Cl
0	0.0	CSc1nsc(SCC(=O)N2CCCc3ccccc32)n1
22	/	COc1cc(CCC(=O)NCc2ccco2)on1
7	0.1	CC(=O)NC(NC(C)=O)C(=O)c1ccccc1
4	4.5	CC(C)c1ccc(CNC(=O)CCc2ccccc2)cc1
7	1.7	Cc1ccc(S(=O)(=O)Nc2cccc(C)c2)cc1
/	-1.4	N/C(=N\O)c1cccc(C(F)(F)F)c1
3	/	CC(C)C1Cc2c(sc3c2c(=O)n(-c2ccccc2)c2nncn32)CO1 (stereo not drawn)
/	2.0	NC(N)=N/N=C\c1c(Cl)cccc1Cl
-44	/	CCOC(=O)c1cc2n(c1N)-c1ccccc1C2=O
/	-0.4	O=S(=O)(CCSc1ccc(Cl)cc1)c1ccccc1
-7	/	Cc1nc(-n2cccc2)sc1C(=O)NC1CCCC1
9	/	O=C1COc2ccc(C(=O)COC(=O)c3ccc4c(c3)C(=O)N(Cc3ccco3)C4=O)cc2N1
13	/	CN1C(=O)c2cccc(NC(=O)CSc3ccc(F)cc3)c2C1=O
39	/	CC(CNC(=O)c1nnc(Cc2ccc(F)cc2Cl)o1)c1ccccc1 (stereo not drawn)
10	-3.2	COc1ccc(C(=O)NCc2cc3ccccc3n2C)cc1
-4	/	O=C(CN1C(=O)C2C3C=CC(C3)C2C1=O)NCC1COc2ccccc2O1 (stereo not drawn)
-16	/	O=C(Cn1ncc2c([nH]c3ccccc32)c1=O)N1CCc2ccccc21
14	/	O=C(OCc1nc2ccccc2s1)c1cc(Cl)sc1Cl
6	/	CCOCCOc1cccc2oc(C(=O)OCC)cc(=O)c12
19	/	O=C(c1cncc(Br)c1)N1CCSc2ccccc21
/	-1.7	Cn1cc(Br)c(-c2cccc(NC(=O)CCCC(=O)O)c2)n1
1	-3.2	Cc1ccc(O)c(CNn2cnnc2)c1
-11	/	CC(=O)N1CCN(S(=O)(=O)c2cccc(C(=O)NCC34CC5CC(CC(C5)C3)C4)c2)CC1
/	-0.5	C=CCSc1nc2ccccc2n1C(=O)CN1C(=O)c2ccccc2C1=O
/	-3.1	N#CCc1ccc(OCc2cc(Cl)cc(Cl)c2)cc1
/	1.2	Nc1cc(=O)[nH]c(=O)n1-c1ccc(Cl)cc1
/	0.1	C=C(/C(C)=N/O)c1ccccc1
-18	/	CCCCOC(=O)Nc1nccs1
-7	/	CCCCn1c(SCC(=O)N2CCC(C)CC2)nc2cc(S(N)(=O)=O)ccc21
/	0.0	O=C(NCCCN1CCN(Cc2ccccc2)CC1)c1cccs1
4	/	COc1ccc(C(=O)OCc2cn3cc(Cl)ccc3n2)c(OC)c1OC
19	-1.6	N#Cc1ccc(COC(=O)c2ccco2)cc1
-14	0.2	COc1ccc(C(=O)Oc2csc(=S)n2C(=O)c2ccc(OC)cc2)cc1
0	/	CCOc1ccc(CCNc2cc(C)nc3ncnn23)cc1OCC
-4	/	CSc1ncccc1C(=O)NCC1CCCCC1
-8	/	O=C(Cn1nnc(-c2ccccc2)n1)OCC(=O)N1CCc2ccccc2C1
-3	0.3	C=CCn1c2[n+](c3ccccc3c1=O)CCCCC2
/	1.1	S=C(NCCc1ccccn1)Nc1ccccc1
2	-1.9	O=C1C=C(NCc2ccc(Cl)cc2)CCC1
-15	0.8	CCOC(=O)c1cc(-c2ccccc2)n(-c2cccc(C(=O)N3CCCC3)c2)c1C
6	-6.9	COc1ccc(C(=O)O)cc1Br
-9	/	CCn1c(O)c(C(C)=NCc2ccccc2CN(C)C)c(=O)n(CC)c1=S
5	/	CC(C)Cn1nc(C(=O)N2CCN(Cc3nc4ccccc4s3)CC2)c2ccccc2c1=O
/	-1.6	Cc1c(C)c(C)c(CN)c(C)c1C
-10	/	O=C(NC1CCCCC1)OCC(F)(F)F
/	1.3	O=C(CC(=O)Oc1ccc(Cl)cc1Cl)Oc1ccc(Cl)cc1Cl
15	/	Cn1ccnc1SCC(=O)c1c[nH]c2ccccc12
-17	/	CCc1cccc(NC(=O)CN(C2=NC3CS(=O)(=O)CC3S2)c2cccc(C)c2)c1 (stereo not drawn)
/	-1.8	COc1cc(C(F)(F)F)c(C(=O)N(C)Cc2ccc(Cl)cc2)cn1
1	1.2	Cn1ncc(N2CCN(C(=O)c3ccc(Cl)cc3)CC2)c(Cl)c1=O
1	/	CC1CC(OCC(O)CN)CC(C)(C)C1 (stereo not drawn)
-19	/	CCC(C)NC(=O)c1ccccc1N (stereo not drawn)
13	/	COc1ccc(C)cc1NC(=O)COC(=O)[C@@H]1CCCN1C(=O)OC(C)(C)C
-7	/	Cc1onc(-c2ccccc2)c1C(=O)NC12CC3CC(CC(C3)C1)C2
-32	/	CCn1nccc1C(=O)Nc1nccs1

Single values from the list.
Cn1ccnc1SCC(=O)c1c[nH]c2ccccc12 – S aureus helic: 15
Cc1c(C)c(C)c(CN)c(C)c1C – MgrA-DNA mod: -1.6
CCn1nccc1C(=O)Nc1nccs1 – S aureus helic: -32
COc1ccc(C)cc1NC(=O)COC(=O)[C@@H]1CCCN1C(=O)OC(C)(C)C – S aureus helic: 13
O=C(NC1CCCCC1)OCC(F)(F)F – S aureus helic: -10

Next part:
S aureus helic	MgrA-DNA mod	structure
12	/	CC1(C)C2CC=C(/C=N/NC(=O)c3cccc(S(=O)(=O)N4CCOCC4)c3)C1C2 (stereo not drawn)
-4	-2.0	COc1cccc(OCC2COS(=O)O2)c1 (stereo not drawn)
-21	/	CCOc1ccc(NC(=O)CC2C(=O)N(c3ccccc3)C(=S)N2CCCN2CCN(C)CC2)cc1 (stereo not drawn)
19	-0.8	CCC1Oc2ccc(C)cc2N(CC(=O)N(Cc2cccnc2)Cc2cccc(OC)c2)C1=O (stereo not drawn)
7	3.8	CCCN(Cc1cc2cccc(C)c2[nH]c1=O)C(C)=O
14	/	CCOC(=O)COc1cc2oc(=O)cc(C)c2cc1Cl
-3	0.6	CSc1nnc(C2CCN(C(=O)c3cc(F)cc(F)c3)CC2)n1C
/	-6.6	NC(=S)c1ccc(C2OCCO2)cc1
/	3.6	O=C1/C(=C\c2ccc(C(F)(F)F)cc2)CSc2sccc21
-16	/	NC(=O)c1sc2c(c1N)C(c1ccccc1Cl)CC(=O)N2 (stereo not drawn)
5	2.4	O=C(CN(Cc1ccc(Cl)cc1Cl)S(=O)(=O)c1ccccc1)N1CCCC1
-10	/	CCOC(=O)c1cnn2c1NC(c1ccc(C(C)C)cc1)CC2C(F)(F)F (stereo not drawn)
-14	/	CCn1nccc1NC(=O)COc1ccccc1OC
/	-2.5	Cc1ccc(C2(C)CC(C)(C)N(C(=O)c3sc4cc([N+](=O)[O-])ccc4c3Cl)c3ccccc32)cc1 (stereo not drawn)
5	/	Nc1cn(-c2ccccc2)nc1-c1ccccc1

One compound at a time, from the list above. Order of screens: S aureus helic	MgrA-DNA mod
CCC1Oc2ccc(C)cc2N(CC(=O)N(Cc2cccnc2)Cc2cccc(OC)c2)C1=O (stereo not drawn) is entered as 19	-0.8
CSc1nnc(C2CCN(C(=O)c3cc(F)cc(F)c3)CC2)n1C is entered as -3	0.6
NC(=O)c1sc2c(c1N)C(c1ccccc1Cl)CC(=O)N2 (stereo not drawn) is entered as -16	/

(list continues)
S aureus helic	MgrA-DNA mod	structure
/	0.6	Cc1ccc(C)n1C(CC(=O)O)c1ccc(C#N)cc1 (stereo not drawn)
-6	1.0&2.9	CC1CN=C(NC2CCCCC2)S1 (stereo not drawn)
7	/	CC(c1nnc(SCC(=O)Nc2cccnc2Cl)n1Cc1ccccc1)N(C)C (stereo not drawn)
7	-1.0	Cn1c(CNc2ccc(Br)cc2)nc2ccccc21
10	/	Cc1ccc(N(C)S(=O)(=O)c2cc(-c3cc(C)no3)ccc2C)cc1
-10	/	O=C(NN1C(=O)/C(=C\C=C\c2ccco2)SC1=S)c1ccccc1O
6	/	COc1cccc2c(=O)n(CC(=O)N3CCCc4ccccc43)ccc12
18	/	Cc1nn(C)c(C)c1CNC(C)c1ccc(-n2ccnc2)cc1 (stereo not drawn)
/	-1.1	Cc1cc(NC(=O)c2ccccc2)n(C)n1
-16	/	CC(C)c1ccccc1OCC(O)CN1C(C)(C)CC(O)CC1(C)C (stereo not drawn)
/	0.8	O=C1C=C(c2ccc(Br)cc2)OC(=O)C1C(=O)c1ccc(Br)cc1 (stereo not drawn)
-2	0.7	CC1CN(C(=O)N(C)C)CCN1C(=O)N(C)C (stereo not drawn)
30	/	Cc1cc(C(=O)COC(=O)Cc2coc3ccc4ccccc4c23)c(C)n1C1CC1
-2	/	O=C(c1ccco1)c1nnn(Cc2ccccc2)c1-c1ccccc1
1	/	CCOc1ccccc1NC(=O)CSc1nnc(-c2ccco2)o1
17	/	COc1ccc(-n2c(=S)[nH]c3cc(C(=O)N4CCC(C(N)=O)CC4)ccc3c2=O)cc1
23	/	S=C(Cc1cccnc1)N1CCOCC1
/	0.7	CCOC(=O)C1=C(C)N=c2s/c(=C\c3ccc(C(=O)OC)cc3)c(=O)n2C1c1ccc2c(c1)OCO2 (stereo not drawn)
15	1.2	COC(=O)c1c(O)ccc(-c2ccc(NC(C)=O)cc2)c1C(=O)OC
8	2.9	CC(C)(C)NC(=O)CSc1nnc(-c2cccs2)o1
-14	/	CCOc1ccc(N(CC)S(=O)(=O)N2CCCC(C(=O)N3CCc4ccccc43)C2)cc1 (stereo not drawn)
/	0.2	CC(=O)n1nccc1-c1nccnc1C
/	-1.6	COC(=O)c1ccc(-c2sc3nc(N4CCOCC4)c4c(c3c2N)CC(C)(C)OC4)o1
2	0.8	CC1CCCN(S(=O)(=O)c2ccc3[nH]c(=O)cc(C(=O)NC(C)CCc4ccccc4)c3c2)C1 (stereo not drawn)
10	4.9	Cc1sc2ncn(CC(O)CO)c(=O)c2c1C (stereo not drawn)
8	3.8	CCNC(=S)N1CCOCC1
14	-0.1	C=C1N(c2cccc(C(F)(F)F)c2)C(=O)OC1(C)C
-27	/	CCC(=O)N1CCc2cc(Br)cc(S(=O)(=O)N3CCC(C(=O)NCCC(C)C)CC3)c21
14	/	CC1(C)Cc2c(c(-c3ccco3)[nH]c(=O)c2C#N)CO1
2	/	Cc1cc(C)c(NC(=O)c2nccnc2CO)c(C)c1

Sorted by the number under S aureus helic (ascending): three of the compounds above.
S aureus helic	MgrA-DNA mod	structure
8	2.9	CC(C)(C)NC(=O)CSc1nnc(-c2cccs2)o1
14	/	CC1(C)Cc2c(c(-c3ccco3)[nH]c(=O)c2C#N)CO1
17	/	COc1ccc(-n2c(=S)[nH]c3cc(C(=O)N4CCC(C(N)=O)CC4)ccc3c2=O)cc1

(next part)
S aureus helic	MgrA-DNA mod	structure
-2	2.8	OCC1OC(n2nnc3ccccc32)C(O)C(O)C1O (stereo not drawn)
5	0.5	C=CCN(CC=C)c1nc(-c2ccccc2)nc2ccccc12
12	/	CCCCCc1cc(C(=O)O)[nH]c1-c1ccccc1
/	1.1	Cc1cccc(OC(=O)Cn2c(C(F)(F)F)nc3ccccc32)c1
0	/	CC(Sc1nc2ccccc2[nH]1)C(=O)Nc1nnc(-c2ccc(F)cc2)s1 (stereo not drawn)
11	-1.2	CC1CN(C(=O)c2ccc(COCC(F)(F)F)o2)CC(C)O1 (stereo not drawn)
-7	1.4	CS(=O)(=O)c1nc(-c2ccc(Br)cc2)n[nH]1
7	4.0	O=C1CC(Cc2ccc(Cl)cc2)C(=O)N1c1ccccn1 (stereo not drawn)
/	3.6	O=C1CC2(CCCC2)C(=O)N1c1cc(Cl)cc(Cl)c1
6	-0.2	Cc1ccc(CNC(=O)Nc2nnc(N3CCCC(C)C3)s2)cc1 (stereo not drawn)
